ALR inh: human ALR oxidase inhibition via reduced H2O2; P55789; purified ALR, DTT oxidation, H2O2 HRP-luminol luminescence; inhibition, % (test concentration not listed); hit rate 3.8% among 290,000;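 active means mean and each replicate at 75% or more; inconclusive means only one of the two met; inactive means neither met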;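 further: stock transfer was 7.5 nL into about 7.5 µL; 0% = neutral wells and 100% = wells with inactivated enzyme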
Target sequence (P55789 whole entry, looked up): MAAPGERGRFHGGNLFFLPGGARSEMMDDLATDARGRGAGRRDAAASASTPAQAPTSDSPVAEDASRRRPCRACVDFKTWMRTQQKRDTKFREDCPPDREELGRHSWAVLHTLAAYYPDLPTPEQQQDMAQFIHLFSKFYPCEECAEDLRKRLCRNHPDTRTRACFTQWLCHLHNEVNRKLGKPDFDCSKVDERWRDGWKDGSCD
RanGTP-Imp inh: disruptors of Ran-importin-beta complex formation – biochemical, FRET, CFP-Ran, YFP-importin-beta, homogeneous, primary screen | cell-free CFP-Ran/YFP-importin-beta FRET ratio | inhibition, % (test concentration not listed) | hit rate 1.1% among 300,000 | AID 2216;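 active means most replicates above 15%; inconclusive means exactly half above 15%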;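 further: 0% = DMSO wells and 100% = Ran loaded with GDP instead of GTP; wells of about 40 µL received 100 nL stock; the first replicate is given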
LANA-H2A inh: blocks KSHV LANA binding to histone H2A/H2B | hit rate 0.6% among 320,000 | inhibition, % (test concentration not listed) | cell-free LANA-H2A/H2B peptide, fluorescence polarization; in the data active means inhibition mostly above about 10%, no sharp cut-off; inactive means mostly below about 6.7%;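 further: stock transfer was 7.5 nL into about 10 µL; 0% = median of vehicle wells and 100% = median of positive control wells; one replicate is shown; the record names a cut of 25% in any replicate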
Vif TR-FRET: HIV-1 Vif–A3G interaction blockers – biochemical, TR-FRET, GST-Vif 1-94, biotin-A3G peptide, dose response retest, primary screen (AID 1117319); TR-FRET GST-Vif / biotin-A3G peptide binding; higher % means a stronger effect; test concentration not given here; strong numbers were not always called active; inhibition, %; hits with a dose series show IC50 in µM; hit rate 0.57% among 260,000;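 active means above the screen mean plus three standard deviations and confirmed in dose response; inconclusive means results disagree or hit not tested in dose response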;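 further: Vif residues 1-94 fused to GST binding biotinylated APOBEC3G peptide 110-148; 0% = full assay without inhibitor and 100% = GST in place of GST-Vif; retest series ran down from 100 µM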
B2AR ag: activates human beta-2 adrenergic receptor causing internalization | P07550 | Am2.2-beta2AR cells, FAP receptor internalization, flow cytometry; reference of the scale not given here | response, % (no concentration beside the values) | hit rate 0.43% among 340,000;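 active means response above a set limit, near 3 SD of response in nonfluorescent compounds, cut at about 42% in these data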;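 further: stock transfer was 100 nL into about 11 µL; a reference agonist was the positive control; negative values mostly stem from fluorescent compounds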
Target sequence (P07550 whole entry, looked up): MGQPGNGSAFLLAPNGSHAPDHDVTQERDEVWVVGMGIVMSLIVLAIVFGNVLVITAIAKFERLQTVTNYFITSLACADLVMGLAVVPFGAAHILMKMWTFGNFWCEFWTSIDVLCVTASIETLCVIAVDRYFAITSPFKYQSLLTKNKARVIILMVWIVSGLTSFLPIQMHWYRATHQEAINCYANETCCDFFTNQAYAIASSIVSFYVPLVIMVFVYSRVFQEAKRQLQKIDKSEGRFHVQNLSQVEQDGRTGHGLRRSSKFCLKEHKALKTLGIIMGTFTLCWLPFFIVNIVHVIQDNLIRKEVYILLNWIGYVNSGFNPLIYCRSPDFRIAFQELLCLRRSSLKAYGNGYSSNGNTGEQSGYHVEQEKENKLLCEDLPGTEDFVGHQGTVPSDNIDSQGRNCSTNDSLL
HNF4A DNA FP: change in binding of human HNF4 alpha to DNA. P41235. HNF4a-FITC DNA binding, fluorescence polarization, 1 h. activity change, % at 10 µM. hit rate 0.3% among 360,000; in the data active means activity change above about 30%, passing the limit was not always enough;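 further: controls were the assay level and a saturating level of protein; the project sought stronger binding though the title names inhibitors; some compounds called inactive have numbers as strong as hits; positive values seem to mean higher polarization but the record does not say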
Target sequence (P41235 whole entry, looked up): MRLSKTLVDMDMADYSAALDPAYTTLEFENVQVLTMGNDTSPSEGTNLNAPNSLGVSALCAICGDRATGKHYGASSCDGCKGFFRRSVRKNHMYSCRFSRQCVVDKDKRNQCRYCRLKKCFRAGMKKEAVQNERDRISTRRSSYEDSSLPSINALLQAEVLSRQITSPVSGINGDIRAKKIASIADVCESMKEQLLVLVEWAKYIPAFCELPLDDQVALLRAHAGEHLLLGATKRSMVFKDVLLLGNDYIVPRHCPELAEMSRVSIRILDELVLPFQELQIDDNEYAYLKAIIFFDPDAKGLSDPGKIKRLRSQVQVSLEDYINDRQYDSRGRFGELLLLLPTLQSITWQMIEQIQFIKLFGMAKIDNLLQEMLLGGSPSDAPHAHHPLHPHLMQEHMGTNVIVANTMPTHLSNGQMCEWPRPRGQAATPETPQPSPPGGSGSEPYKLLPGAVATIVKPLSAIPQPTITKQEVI
Calb FLC: affects C. albicans growth with fluconazole | AID 1979 | C. albicans CaCi-2 (fluconazole-resistant clinical isolate) + fluconazole, Alamar Blue growth, 48 h | hit rate 0.57% among 300,000 | growth inhibition, % (test concentration not listed);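 active means most replicates above 75%; inconclusive means exactly half above 75%; inactive means most below 75%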;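 further: all wells also contain fluconazole at 8 µg/ml as a sub-toxic cotreatment; 0% = median of DMSO wells and 100% = median of geldanamycin control wells; wells of about 8 µL received 7.5 nL stock; the first replicate is given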
* = called active by the depositor; ? = inconclusive; . = not tested or not shown.

SMILES	ALR inh	RanGTP-Imp inh	LANA-H2A inh	Vif TR-FRET	B2AR ag	HNF4A DNA FP	Calb FLC
Clc1c(OCCCn2ccnc2)ccc2ccccc12	-21	0.5	-2.3	-2%	2	-2.6	62
Cc1ccc(N2CCN(c3ncccc3[N+](=O)[O-])CC2)c(C)c1	8	-4.2	-1.4	-3%	4	-4.5	-3
Cc1c(-c2ccccc2)nc2ccccc2c1C(=O)NCc1cccs1	-6	?	-5.2	11%	-13	0.8	-10
Cc1[nH][nH]c(=O)c1C(c1cc2c(cc1Br)OCO2)c1c(C)[nH][nH]c1=O	9	-3.0	1.5	9%	8	1.5	-8
O=C(NC(Cc1ccccc1)C(=O)O)/C(=C/c1ccc([N+](=O)[O-])cc1)NC(=O)c1ccc(Br)o1 (stereo not given)	26	-0.2	13	.	-16	0.3	15
O=C(c1ccc(Br)cc1)c1cc([N+](=O)[O-])ccc1N1CCCCC1	-4	1.7	-1.3	24%	34	3.6	11
COc1ccccc1C(=O)OCCc1ccccc1	.	.	.	3%	12	-0.5	.
O=C(CCCNC(=O)c1ccc(Cl)cc1)OCc1cccc(Br)c1	.	-1.7	1.1	-2%	-1	-2.6	-3
COc1ccc(S(=O)(=O)N(C)C)cc1NC(=O)Cc1cccs1	-4	?	-0.7	3%	-3	-2.3	-15
CC1CC(C)(C)NC(=S)N1CCCC(=O)N1CCN(c2ccccc2F)CC1 (stereo not given)	5	-1.0	0.8	.	1	-1.5	44
CSc1nc(N)nc2c1ncn2CC(=O)NCCNc1ccc([N+](=O)[O-])cn1	.	.	0.6	2%	-5	3.0	.
CC(C)OC(=O)CNc1n[nH]c(=S)[nH]c1=O	.	0.8	.	2%	4	3.1	27
O=C(N=C1SC2CS(=O)(=O)CC2N1c1ccc(F)cc1)C1CC1 (stereo not given)	-16	-3.2	16*	.	0	0.9	-6
c1ccc2oc(-c3ccc(Nc4nc(N5CCCCC5)nc(N5CCOCC5)n4)cc3)nc2c1	-8	-1.4	-9.0	-4%	.	.	8
CC(C)n1cc(CN2CCC(n3nccc3NC(=O)CCCc3ccccc3)CC2)cn1	-18	-3.1	0.7	.	-4	-2.1	-7
CCOC(=O)C1=C(CSc2nccn2C)NC(=O)NC1c1ccc2c(c1)OCO2 (stereo not given)	-5	-0.3	3.6	6%	-13	1.5	-12
Cc1ccc(/C=C2/SC(=S)N(CCC(=O)N3CCOCC3)C2=O)cc1	-3	3.3	8.8	.	0	0.6	3
O=C(Nc1ccc(F)cc1F)C1CC(=O)N(Cc2ccccc2)C1 (stereo not given)	-9	.	0.9	-6%	1	0.9	.
CC1(C)Cc2c(c(N3CCOCC3)nc3sc(C(=O)Nc4cccc(Cl)c4)c(N)c23)CO1	3	1.4	1.6	-9%	1	8.4	-8
COc1ccc(-c2coc3cc4oc(=O)cc(-c5ccccc5)c4cc23)cc1F	-6	1.3	-8.7	.	5	-3.4	2
O=C(NCC(c1ccco1)N1CCN(c2ccc(F)cc2)CC1)c1ccc2c(c1)OCO2 (stereo not given)	33	2.4	-1.1	-5%	2	-6.0	4
O=C(NCC1c2ccccc2CCN1C(=O)CN1CCOCC1)C1CCCCC1 (stereo not given)	-3	-0.2	3.5	-3%	2	-1.7	0
CCOC(=O)c1ccc(NC(=O)c2ccc(NC(=O)C3CCCO3)cc2)cc1 (stereo not given)	-6	10	-1.5	.	11	-2.0	-10
O=C(CSc1ncn[nH]1)NCCc1ccc(Cl)cc1	.	-2.1	0.4	.	11	-1.6	1
Cc1nn(CC(=O)NCCCN2CCC(Cc3ccccc3)CC2)c(=O)c2cc(-c3ccccc3)nn12	-10	1.6	-7.6	-3%	29	2.3	0
CC(C)COc1ccc(-c2nn(-c3ccccc3)cc2/C=C2/SC(=S)N(CC(=O)O)C2=O)cc1	97*	-0.7	-0.2	.	-2	-30	-4
CC(=O)c1c(C)[nH]c(C(=O)OCc2nnc(-c3ccccc3)o2)c1C	-24	-1.2	7.2	11%	39	1.1	-3
Cc1cccc(C)c1NC(=O)CNCC(=O)N(C)C	-1	-5.8	1.7	-4%	5	6.0	-4
COc1cc(N2C(=O)CSC23C(=O)Nc2ccccc23)cc(OC)c1OC (stereo not given)	28	0.0	-0.1	-2%	15	1.9	1
O=C(CSc1nc2ccccc2o1)Nc1nc2ccc(Br)cc2s1	98*	2.5	1.5	-11%	4	0.7	12
COc1cc(OC)cc(-c2nnc(SCc3cccnc3)o2)c1	-4	1.1	-1.4	12%	-15	3.1	18
NN(Cc1ccccc1)C(=S)Nc1ccc(Cl)c(Cl)c1	5	-3.8	-5.0	.	15	-0.5	7
NS(=O)(=O)c1cc2c(cc1Cl)NC(C(Cl)Cl)NS2(=O)=O (stereo not given)	-10	0.8	-10	?	1	3.4	.
C[C@@]12CCC3[C@@](CCC4[C@@]3(C)CCC[C@@]4(C)C(=O)N3CCOCC3)(CC1=O)C2 (stereo not given in full)	-1	.	0.3	.	4	0.2	.
CCOC(=O)C1=CN(C)C=C(C(=O)OCC)C1c1ccsc1	-23	53*	-6.6	7%	-3	-0.7	8
O=c1cc(CO)occ1OCc1c(F)cccc1Cl	-9	-0.6	8.7	18%	-8	0.7	-9
COCCNc1nnc(SCC(=O)NNC(=O)c2ccc([N+](=O)[O-])cc2)s1	-17	3.8	-1.2	-2%	-2	2.6	.
O=C(NCCN1CCN(C(=O)c2ccc([N+](=O)[O-])cc2)CC1)C(=O)Nc1ccc(F)cc1	-8	-1.4	-3.7	?	-5	1.2	4
OCCNc1cc(Cl)ncn1	-6	?	-4.0	-4%	0	1.8	-4
CCOC(=O)CCC(NC(=O)c1ccc(Nc2nc3ccccc3nc2C(=O)OCC)cc1)C(=O)OCC (stereo not given)	.	.	.	9%	-16	3.8	.
COc1cc2ccc3c(CCN(C)C)cc(OC)c(OC)c3c2cc1OC	.	3.5	1.0	0%	-3	0.3	-8
COc1cc(/C(C)=N/NC(=O)c2cccc(S(=O)(=O)N3CCCC3)c2)cc(OC)c1OC	1	-3.3	1.3	.	3	-0.7	-9
Cc1cc(C(=O)NNC(=O)/C=C/c2ccccc2Cl)c(C)o1	-2	-1.1	4.2	-13%	-5	0.7	4
COc1cc2c(=O)n(CC3CCCO3)c(=O)n(CC(=O)Nc3ccc(F)cc3F)c2cc1OC (stereo not given)	-1	0.8	-6.9	-2%	10	-0.4	7
CC(=O)NC1C(OCc2ccccc2)OC2COC(c3ccccc3)OC2C1OCC(=O)O (stereo not given)	-15	-1.8	-0.5	-7%	13	-1.1	-6
CSc1ccc(S(=O)(=O)NCc2ccc(Cl)cc2Cl)cc1	-6	0.7	-3.9	22%	-2	0.8	-1
O=C(COC(=O)c1ccccc1O)NC(=O)c1ccc(OC(F)F)cc1	-6	.	-13	7%	-10	-2.4	.
CNC(=O)CSc1nc2c([nH]c3ccccc32)c(=O)n1CCOC	1	1.7	3.3	-9%	0	-1.8	-1
O=C(NCCN1C(=O)C2C3C=CC(C3)C2C1=O)Nc1cccnc1 (stereo not given)	-8	-0.6	1.9	-2%	-15	1.5	2
COc1cccc(N(CC(=O)NCCSCc2ccc(Cl)cc2)S(C)(=O)=O)c1	-10	3.1	0.2	.	-196	2.0	7
Cc1ccc(/C(O)=C2/C(=O)C(=O)N(c3ccccn3)C2c2ccc([N+](=O)[O-])cc2)cc1 (stereo not given)	18	-0.2	-5.4	-2%	-2	-0.3	-14
COc1ccccc1Nc1nc(N)nc(CN(C)C2CCCCC2)n1	.	2.9	0.9	32%	1	-0.5	-9
CCc1c(C(C)S(=O)(=O)c2ccccc2)[nH]c(=O)n1CC (stereo not given)	17	6.7	1.6	-9%	-1	-0.3	-12
O=C(COc1ccc(F)cc1)Nc1c(C(=O)N2CCC(N3CCCCC3)CC2)oc2ccccc12	-4	1.7	3.9	.	3	1.3	6
O=C(c1cc(COc2ccc(F)cc2Cl)on1)N1CC2C[C@@H]3CC1C[C@H](C2)C3	3	6.1	-2.7	.	87*	0.2	-9
O=C(Nc1cccc(S(=O)(=O)N2CCOCC2)c1)C(c1ccccc1)N1CCCCC1 (stereo not given)	-1	1.2	1.8	1%	6	4.3	-20
CC(C)CNC(=O)COC(=O)c1ccc(Cl)c(S(N)(=O)=O)c1	0	-4.6	4.8	-3%	0	5.7	-5
C/C(CC(=O)Nc1ccccn1)=N\NC(=O)c1ccc2ccccc2c1	28	2.3	2.8	.	-8	-0.7	-2
Cc1cc(C)nc(Nc2ncn[nH]2)n1	-2	3.9	0.8	-4%	.	.	31
NS(=O)(=O)c1ccc(NNC(=O)c2ccc(Br)o2)c([N+](=O)[O-])c1	86*	.	8.5	1%	-2	-1.2	.
(more compounds)
SMILES	ALR inh	RanGTP-Imp inh	LANA-H2A inh	Vif TR-FRET	B2AR ag	HNF4A DNA FP	Calb FLC
O=C(Nc1ccccc1N1CCCC1)c1ccc(N2CCCC2=O)cc1	99*	1.7	5.3	-2%	-2	2.4	8
Cc1ccc(CNC(=O)c2cc(S(=O)(=O)N3CCCC3)cn2C)cc1	-27	0.3	-3.3	.	-8	1.6	7
Cc1ccc(C(=O)C2CCN(CC(=O)Nc3ccc4c(c3)OCCO4)CC2)cc1	-8	1.5	-1.1	-1%	21	9.0	-1
O=C(NCc1cccnc1)c1cc(Sc2ccc(F)cc2F)nc2ccccc12	-15	1.1	0.6	-14%	-14	0.0	3
Cc1ccc2nc3c(cc(C#N)c(=O)n3-c3nccs3)c(=O)n2c1	-6	191*	-1.1	-1%	-13	-4.0	2
O=C(O)c1ccc2cccnc2c1O	-18	2.6	-2.9	?	2	-0.4	10
CCc1cc(=O)oc2cc(C)cc(OCC(=O)C(C)(C)C)c12	-3	-3.8	-1.2	-10%	4	0.8	-6
CCOc1ccc(OCCn2c(=S)[nH]c3c(N)ncnc32)cc1	91*	-1.3	6.8	12%	3	-2.1	-5
CC1(C)NC(=O)N(CC(=O)N2CCN(S(=O)(=O)c3ccccc3F)CC2)C1=O	-19	.	-6.9	-6%	-1	0.7	.
COc1cccc(NC(=O)c2ccccc2C(F)(F)F)c1	.	-2.1	-6.0	.	3	0.9	?
O=C(NCc1n[nH]c(=O)c2ccccc12)C1CC(=O)N(c2ccccc2)C1 (stereo not given)	-9	8.3	-3.7	-3%	-6	-2.6	.
CC(=NNC(=O)c1ccncc1)c1ccc(O)cc1O	.	.	.	-3%	4	-0.2	.
Cc1nn(C)cc1CNC(=O)c1cccc(Br)c1	.	0.5	-5.1	?	5	-0.7	13
O=C(OCC(=O)N1CCN(C(=O)c2ccco2)CC1)c1ccccc1OCc1ccc(Cl)cc1	-8	?	2.2	-6%	-10	-1.7	1
O=C1c2cccc3c(N4CCCCC4)ccc(c23)C(=O)N1CCO	-10	-305	49*	9%	-46	-30	19
Cc1cc(CC(=O)O)c(C)cc1CC(=O)O	-14	-3.1	-5.4	6%	-5	1.3	4
CCCCC(CC)CNC(=O)/C=C/c1ccc(F)cc1 (stereo not given)	-6	6.3	-1.2	-4%	.	.	-11
COc1cc2c(C#Cc3cccnc3)c(-c3ccsc3)oc(=O)c2cc1OC	0	.	-2.3	.	29	5.4	.

Compound profiles, as listed above. Screens in order: ALR inh, RanGTP-Imp inh, LANA-H2A inh, Vif TR-FRET, B2AR ag, HNF4A DNA FP, Calb FLC
Record of O=C(COc1ccc(F)cc1)Nc1c(C(=O)N2CCC(N3CCCCC3)CC2)oc2ccccc12 → -4, 1.7, 3.9, ., 3, 1.3, 6
Record of Cc1nn(C)cc1CNC(=O)c1cccc(Br)c1 → ., 0.5, -5.1, ?, 5, -0.7, 13
Record of O=C(NCCN1C(=O)C2C3C=CC(C3)C2C1=O)Nc1cccnc1 (stereo not given) → -8, -0.6, 1.9, -2%, -15, 1.5, 2

Not a hit list; any-hit rate near 6.3%.
